# Screens deposited in PubChem BioAssay by National Center for Advancing Translational Sciences (NCATS).
# NPR1 antag = Natriuretic polypeptide receptor (hNpr1) antagonism - Primary qHTS; HEK293 hNpr1 GloSensor cGMP, ANP-stimulated luminescence; Potency, µM (doses to about 46.3 µM), without a hit: top-dose activity change, negative = inhibition, actives largely listed as inhibitors; 76,000 tested, 1.6% active; Atrial natriuretic peptide receptor 1 (Homo sapiens), P16066; active = well fitted inhibition curve with a large enough effect; inconclusive = small, poorly fitted or top-dose-only effect; inactive = no such curve, though single readings can be large or run the other way;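 also: nearly all actives have a fitted effect of over 60% in size; nearly all hits also lower the signal before the agonist is added; a reference antagonist and vehicle were the controls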
# Target sequence (P16066 whole entry, looked up): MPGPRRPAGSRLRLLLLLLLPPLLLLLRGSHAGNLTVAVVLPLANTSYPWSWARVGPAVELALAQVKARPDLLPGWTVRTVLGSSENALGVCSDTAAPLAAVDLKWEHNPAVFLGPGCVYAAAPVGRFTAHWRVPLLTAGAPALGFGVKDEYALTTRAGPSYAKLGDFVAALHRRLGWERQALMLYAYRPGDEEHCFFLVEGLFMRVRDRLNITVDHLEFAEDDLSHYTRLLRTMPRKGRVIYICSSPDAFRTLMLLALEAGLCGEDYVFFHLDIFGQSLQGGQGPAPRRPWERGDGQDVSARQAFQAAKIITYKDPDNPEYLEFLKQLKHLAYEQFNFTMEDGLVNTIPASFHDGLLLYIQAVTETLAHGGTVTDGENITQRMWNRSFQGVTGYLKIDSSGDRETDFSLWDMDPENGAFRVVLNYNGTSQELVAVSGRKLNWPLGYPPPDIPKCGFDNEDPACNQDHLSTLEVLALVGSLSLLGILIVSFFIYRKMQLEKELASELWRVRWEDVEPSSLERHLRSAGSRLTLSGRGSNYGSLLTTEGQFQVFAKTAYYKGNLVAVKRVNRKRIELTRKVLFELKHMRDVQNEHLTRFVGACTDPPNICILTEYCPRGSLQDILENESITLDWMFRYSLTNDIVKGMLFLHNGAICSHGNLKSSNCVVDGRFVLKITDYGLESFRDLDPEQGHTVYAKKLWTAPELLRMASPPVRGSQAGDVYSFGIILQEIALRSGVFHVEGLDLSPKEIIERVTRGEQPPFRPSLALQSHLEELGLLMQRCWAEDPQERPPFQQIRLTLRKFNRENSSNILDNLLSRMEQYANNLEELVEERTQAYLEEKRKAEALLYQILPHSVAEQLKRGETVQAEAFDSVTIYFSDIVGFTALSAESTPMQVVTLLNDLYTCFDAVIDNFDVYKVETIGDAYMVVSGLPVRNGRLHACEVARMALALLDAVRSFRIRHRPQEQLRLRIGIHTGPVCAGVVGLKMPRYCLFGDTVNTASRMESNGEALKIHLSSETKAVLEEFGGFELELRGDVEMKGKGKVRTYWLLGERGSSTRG
#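 HEK293 cells stably expressing human Npr1 and cGMP GloSensor pGS-40F, loaded 2 h with 2% GloSensor reagent, given compound 30 min at room temperature. Luminescence read before and 20 min after 0.1 nM hNppA.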
# The depositor's hits bear a star; ? = inconclusive; [ ] = dose if it differs, or a comment. % is scaled to controls: 0 for no effect and ±100 for the full control effect; potency is read from the fitted curve at half-maximal effect.
NPR1 antag	Compound
3.0%[70.6 µM]	O=C(NC[C@H]1OC[C@@H](NCc2ccccc2O)[C@@H]1O)Nc1ccccc1
-6.6%	CC(=O)Nc1cccc(-c2ccc3c(n2)CN(Cc2nc4ccccc4s2)C(=O)CO3)c1
-1.8%	CN(C)c1nc2c(c(=O)[nH]1)CCN(Cc1ccncc1)CC2
2.0%	O=C(Nc1ccc2c(c1)OCCO2)N1CC(c2nc(CCOCC3CC3)no2)C1
2.6%[70.6 µM]	COCC(=O)N[C@H]1CO[C@H]2[C@@H]1OC[C@@H]2Nc1nccc(-c2cccc(F)c2)n1
3.5%	C[S+](=O)([O-])N1CCc2nc(-c3ccccc3)nc(-c3ccc(Cl)cc3)c2C1
0.6%	O=C(O)c1cccc(C(=O)N2C[C@@H](C(=O)O)[C@H](c3ccc4c(c3)OCO4)C2)c1
-24.9%	CS(=O)(=O)N1CCC(OC2CCN(C(=O)Nc3cc(F)ccc3F)CC2)CC1
-1.5%	COC(=O)[C@H](NC(=O)[C@@H]1C[C@H](NC(=O)Nc2cccc(SC)c2)CN1C(=O)C=C(C)C)C(C)C
0.1%	O=S(=O)(c1ccc(F)cc1)N1CCCC(c2nn[nH]n2)C1 (configuration not stated)
-0.7%[70.6 µM]	COC(=O)[C@@H]1Cc2ncn(C(C)C)c2CN1C(=O)c1ccccc1
-2.4%[70.6 µM]	Cc1cccc(O[C@H]2COCCN(Cc3cnn(C)c3)C2)n1

# Two of the compounds above, field by field.
mol: O=S(=O)(c1ccc(F)cc1)N1CCCC(c2nn[nH]n2)C1 (configuration not stated)
- NPR1 antag: 0.1%
mol: COC(=O)[C@@H]1Cc2ncn(C(C)C)c2CN1C(=O)c1ccccc1
- NPR1 antag: -0.7%[70.6 µM]

# (further entries)
NPR1 antag	Compound
-21.2%[70.6 µM]	O=C1COCCN1c1cc(-c2ccccc2Oc2ccccc2)cn2cncc12
1.8%	CNC(=O)[C@@H]1CN(C(=O)CCc2c[nH]c3ccccc23)C[C@H]1CO
-28.9%[70.6 µM]	O=C(NC[C@H]1Cn2cc(-c3ccccc3)nc2CO1)c1ccc2c(c1)OCO2
-6.1%	Cc1nnc([C@@H]2CC(F)(F)CN2)o1
0.4%	COc1cccc(S(=O)(=O)N2CCCCCCNC(=O)[C@@H]3CCCC[C@@H]32)c1
-3.8%	COCC1CN(C2CCC2)CC12CCN(C(=O)c1ccc(F)cc1F)CC2 (configuration not stated)
-25.0%[70.6 µM]	CN1C[C@@H](NC(=O)COc2ccccc2)C[C@H]1c1nc(-c2ccc(Cl)cc2)no1
-14.1%	Cc1nc(-c2cn(C3CCCN(C(=O)c4cccc(N(C)C)c4)C3)nn2)no1 (configuration not stated)
11.2µM*	O=C(Nc1ccc2c(c1)CCC2)c1cc2c(s1)CN(C1CC1)C2
-0.2%	O=C(Cn1nc2n(c1=O)CCCC2)Nc1ccc2c(c1)OCO2
3.4%	CN(Cc1ncc[nH]1)C(=O)C1CCC(=O)N(CCc2ccccn2)C1 (configuration not stated)
3.0%	CCOCCOC1CCN(C(=O)c2ccc(OC)nc2)CC1
3.9%	COCc1noc([C@@H]2CN(S(=O)(=O)c3c(C)noc3C)C[C@H]2C(N)=O)n1
-2.2%	CN(C)CCNC(=O)c1ccc(-c2ccc(N3CCCCCC3)nc2)cc1
-4.3%	COc1cccc(C2CCN(Cc3cn(-c4ccccc4)nn3)C2)c1OC (configuration not stated)
-0.9%[70.6 µM]	O=C(Cc1cccc(F)c1)N1CCOCC12CCN(Cc1ccccc1)CC2
?	COc1ccc(-c2cc(N3CCCN(C(=O)Cc4ccc(C)cc4)CC3)n[nH]2)cc1
9.0%	CC(C)CCC1=NC2(CCN(C(=O)C3CC34CCCC4)CC2)C(=O)N1 (configuration not stated)
5.8%	CCc1ccccc1NC(=O)c1cc2c(N3CCSCC3)nc(C)cn2n1
0.0%	O=C(c1ccco1)N1CC[C@@H]2[C@@H](CCC(=O)N2CCc2ccccn2)C1
-4.0%	Cc1cc(N)n(CC(=O)N[C@@H]2COCC[C@@H]2OCc2cscn2)n1
6.2%	CCn1ccc(C(=O)N2C[C@@H](COc3ccccc3)[C@H](C(N)=O)C2)n1
-24.6%[70.6 µM]	CCN(CC)C(=O)C(C)[C@@H]1CC[C@@]2(C)CC[C@H](NC(=O)c3ccccc3)[C@@H](C)[C@@H]2[C@H]1O (some centres not stated)
-1.9%	CCCC(=O)Nc1ccc(C(=O)N2CCc3nc(C)n(C)c(=O)c3CC2)cc1
0.6%	Cc1ncc2n1C(=O)N(C1CCN(C(=O)c3cccc(Cl)c3)CC1)C2
4.6%	COc1ccc(CCC(=O)N2CCCC(c3nc(-c4ccccc4)no3)CCNC(=O)CC2)cc1 (configuration not stated)
-1.1%	CCN1c2cc(C(=O)NCc3ccc(OC)cc3)ccc2C(=O)N2CCCCCC21 (configuration not stated)
?	CCOc1ccc(Cl)cc1CN(C)c1cc(C2CC(O)C2)nc(N)n1 (configuration not stated)
-10.3%[70.6 µM]	COc1cccc(CN2CC3(CCN(C)C3)c3cc(C(=O)NC4CCCCC4)ccc32)c1 (configuration not stated)
3.3%	O=C(Cn1nc2n(c1=O)CCCCC2)Nc1ccc2c(c1)OCO2
0.0%	O=C(c1ccc2c(c1)OCO2)N1CCC2(CC1)COc1ccccc1CN2
-16.0%	c1ccc(-c2noc(-c3cncnc3NCc3ccco3)n2)cc1
0.6%	CCCS(=O)(=O)N1CCC(N2C(=O)[C@H](OC)[C@@H]2c2ccncc2)CC1
-1.2%	CCCN1C(=O)Cc2ccccc2C1C(=O)N1CCN(c2ccccc2)CC1 (configuration not stated)
7.1%	CN(C)C[C@@H]1CN(S(C)(=O)=O)C[C@H]1NC(=O)c1cccc(F)c1
7.0%	COCCc1nncn1C1CCN(S(=O)(=O)c2ccc(Br)cc2)CC1

# Two of the compounds above, with each value named:
> O=C(Cn1nc2n(c1=O)CCCCC2)Nc1ccc2c(c1)OCO2
  NPR1 antag = 3.3%
> COCCc1nncn1C1CCN(S(=O)(=O)c2ccc(Br)cc2)CC1
  NPR1 antag = 7.0%

# New compounds follow
NPR1 antag	Compound
5.5%	O=C(N[C@@H]1CCN(Cc2ccc3nsnc3c2)C[C@H]1O)c1cnccn1
-21.1%	COCCN1CC(CO)C2(CCN(Cc3ccc(F)c(Cl)c3)CC2)C1 (configuration not stated)
0.3%	CC(=O)Nc1cc(C(=O)N(C)Cc2ccco2)c2ccc(C)nc2c1
1.7%	CS(=O)(=O)N1C[C@@H]2CN(C(=O)C3CCOCC3)C[C@]2(C(=O)O)C1
-0.3%[70.6 µM]	O=c1[nH]c2cccnc2n1CCc1ccccc1
?	COc1ccc(C(=O)N2CCC(n3cc(-c4nc(C(C)C)no4)nn3)C2)cc1F (configuration not stated)
5.1%	CCC[C@H]1CN(Cc2c(C)noc2C)C[C@@H]1NC(=O)C1CCOCC1
7.0%	CCN(CC1CCN(C2CCN(C)CC2)CC1)C(=O)c1ccc(-c2ccccc2)cc1
-6.8%[70.6 µM]	O=c1n(-c2ccncc2)nc2n1CCN(Cc1ccsc1)C2
1.7%	O=C1CCN(C(=O)[C@@H]2CCCN2C(=O)Nc2ccccc2)CCCCCCN1
0.5%	Cn1cnc(S(=O)(=O)N2CCOc3ccc(CCC(=O)NCC4CC4)cc3C2)c1
3.5%	COCCn1c(CN2C(=O)COc3ccccc32)nnc1C1CC(N)C1 (configuration not stated)
2.6%	Cc1ncc(C(=O)N2CCC3(CC(=O)NC3=O)C2)c(-c2ccccc2)n1 (configuration not stated)
-14.4%	Cc1ccc(C(=O)N2CCC[C@H]2c2nc(-c3ccccc3)no2)cc1
0.2%	COc1ccc(CN2C(=O)CO[C@H](c3ccc(NC(=O)Cc4ccccc4)cc3)[C@H]2CO)cc1
-3.9%[70.6 µM]	COCCN1Cc2nc(-c3ccsc3)ccc2OCC1=O
?	CC1=NS(=O)(=O)N(C)C=C1C(=O)OCc1nc(-c2ccccc2F)no1
-11.6%[70.6 µM]	Cc1csc(NC(=O)C2(C)COCc3cnc(Nc4ccccc4)nc32)n1 (configuration not stated)
-13.7%	O=C(c1ccncc1)N1CCCC(CN2CCCC2)CC1 (configuration not stated)
4.5%[70.6 µM]	C#CCN(C)C(=O)c1c(-c2ccccc2)noc1[C@H](C)O
-1.0%	O=C(c1cc2ccccc2[nH]1)N1CCC2(CC1)CN(c1ccncn1)CC2CO (configuration not stated)
4.5%	O=C(C1CCCCC1)N1CCN(c2nnc3ccc(C(F)(F)F)cn23)CC1
0.8%	Cc1cccc(-c2nc(C3CC(=O)N(c4ccc(F)c(Cl)c4)C3)no2)c1 (configuration not stated)
6.7%	O=C1NCCCCCCN(C(=O)C2(c3ccccc3)CC2)[C@H]2CCCC[C@@H]12
-5.1%	COc1ccc(NC(=O)c2ccc(Cn3ccn4nc5c(c4c3=O)CCCC5)cc2)cc1
19.0%	Cc1cn2nc(C(=O)N3CCC(NC(=O)c4cccc(F)c4)CC3)cc2c(=O)[nH]1
-1.0%	COCCC(=O)N[C@@H]1CN(C)C[C@H]1CN(C)C
15.1%	CNC(=O)[C@@H]1CN(C(=O)COc2ccc(Cl)cc2C)C[C@H]1CO
2.2%	CCOc1ccc(CN2CCCC(CCC(=O)Nc3ccccc3F)C2)cc1CO (configuration not stated)
1.2%[70.6 µM]	CC(C)N1C[C@H](O)C[C@H]1c1nc(-c2cccc([N+](=O)[O-])c2)no1
12.6µM*	O=C(Cc1ccc(F)cc1)N1CCN(C(=O)c2nnn3c2COC(c2ccc(Cl)cc2)C3)CC1 (configuration not stated)
2.1%	Cc1n[nH]c(C)c1-c1ccc(CN(C)C)cc1O
?	Cn1nccc1C(=O)N1CCC(Cc2nc(C3CCOCC3)no2)CC1
-1.1%	CS(=O)(=O)N(C1CCOCC1)C1CN(S(=O)(=O)c2ccccc2)C1
-0.6%	Cc1cccc(Cl)c1NC(=O)Cn1ccn2nc(-c3ccc(F)cc3)c(CO)c2c1=O
1.9%	CN(C)Cc1nnc(C2CC(NC(=O)c3cnc4ccccc4n3)C2)n1C (configuration not stated)
-9.3%	Cc1oc2c(c1C(=O)NC1CCN(C)CC1)CN(C)CC2
5.7%[70.6 µM]	COC1CCN(C(=O)Cc2c[nH]c3ncc(-c4cnn(C)c4)cc23)CC1
-2.8%[70.6 µM]	O=C(NCc1ccc(F)cc1)[C@@H]1C[C@H](c2ccc(F)cc2)N([S+](=O)([O-])C2CC2)C1
?	O=C(c1ccc(Cl)cc1)N1CCN(c2cc(-c3ccc(F)cc3)[nH]n2)CC1
?	Oc1ccccc1CN1CCNc2cnc(OCc3cccnc3)cc2C1
0.0%[70.6 µM]	CC(=O)N1CC2(Cc3ccccc31)CN(C(=O)Cc1ccc(F)cc1)C2
3.7%	CC(=O)NC[C@H]1CCN(Cc2cccc(Cl)c2F)C[C@H]1N(C)C
17.0%	CCN(CC1CCCN(CCc2cccc(OC)c2)C1)C(=O)CSC (configuration not stated)
?	O=c1c2c(CO)c(-c3ccc(F)cc3)nn2ccn1CCOc1ccccc1
-16.3%	O=C(O)[C@@H]1CN(Cc2ccccc2)C[C@@H]1C(=O)N1CCCCC1
-3.1%	COc1ccc(C(=O)Nc2ccc3c(c2)CN(Cc2ccccc2Cl)C(=O)C(C)O3)cc1OC (configuration not stated)
-20.6%	Clc1ccccc1C1(c2ccnc(NC3CCC3)n2)CCNCC1

# Filtered by structure: the entries above containing a COOH group
NPR1 antag	Compound
0.6%	O=C(O)c1cccc(C(=O)N2C[C@@H](C(=O)O)[C@H](c3ccc4c(c3)OCO4)C2)c1
1.7%	CS(=O)(=O)N1C[C@@H]2CN(C(=O)C3CCOCC3)C[C@]2(C(=O)O)C1
-16.3%	O=C(O)[C@@H]1CN(Cc2ccccc2)C[C@@H]1C(=O)N1CCCCC1

# The results go on.
NPR1 antag	Compound
-2.0%	CCc1nc(-c2nnn3c2COC(c2ccc(OC)cc2)C3)no1 (configuration not stated)
-21.6%[70.6 µM]	CCC(CC)C(=O)NC[C@H]1O[C@H](Cc2cc(-c3ccc(F)cc3)on2)CC[C@@H]1O
0.9%	COc1ccccc1OCCNC(=O)C1CC(=O)N(c2n[nH]c3cccc(F)c23)C1 (configuration not stated)
-2.9%	O=C(Cc1cccc(Cl)c1)N1CCc2c(n(Cc3ccccc3)n(-c3ccccc3)c2=O)C1
9.2%	COCCN1CC(CO)C2(CCN(Cc3cccs3)CC2)C1 (configuration not stated)
?	CCc1nc(-c2ccc(OC3CCN(C(=O)COc4ccc(F)cc4)C3)cc2)no1 (configuration not stated)
4.4%	CCN1C(=O)C2CC3(CCN(Cc4ccc5[nH]ccc5c4)CC3)CN2C1=O (configuration not stated)
-0.2%	O=C(CCC1CCCC1)N1CC(c2noc(COc3ccccc3)n2)C1
-5.7%	COc1ccc(CN2C(=O)[C@@H]3C[C@@H](CN3Cc3ccc4c(c3)OCO4)Oc3ccccc32)cc1
-2.6%	O=C(c1ccco1)N1CCCC(n2cc(-c3nc(C4CC4)no3)nn2)C1 (configuration not stated)
-6.8%[70.6 µM]	c1ccc(-c2cn3c(n2)CO[C@@H](CNCc2ccc4ccccc4n2)C3)cc1
-2.3%	CN(C)CCNC(=O)C1(CCO)CC12CCOCC2 (configuration not stated)
2.9%	Cc1nc(-c2c3n(c(=O)n(CC(=O)NCc4ccccc4)c2=O)CCCC3)no1
3.1%	COCCc1noc([C@@H]2CC(F)(F)CN2C(=O)c2cccc(C)n2)n1
0.0%	O=C(NC1CCN(c2cc(-c3ccc(F)cc3)[nH]n2)CC1)c1c[nH]c2ccccc12
-4.6%	NC1(C(=O)N2CCOC(CC(c3ccccc3)c3ccccc3)C2)CC1 (configuration not stated)
2.5%	COCCN1C(=O)CC[C@@]2(C(=O)N3CCOCC3)CCCC[C@H]12
5.1%	Cc1oc(-c2cccc(Cl)c2)nc1CN1CCN(C(=O)N(C)C)CC1
-4.8%[70.6 µM]	Cc1[nH]cnc1CN1CCNc2cc(-c3ccccc3)ncc2C1

# These rows are one share of the data; count on the stated rates, not on these rows.
